Source: PubChem
Vaccinia stage: blocks a specific stage of Vaccinia orthopoxvirus infection; activity change (mCherry), % (no concentration beside the values); actives 0.01% (n = 89,000); Vaccinia-infected cells, mCherry/Venus stage reporter fluorescence; hits give low values; some inactives read as strong as hits; AID 1053133;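 active means mCherry past -33% and 40 or more points under the early reporter, replicates agreeing; inconclusive means past -33% without that gap or agreement; tested in A549 cells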;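 further: scaled between vehicle wells and reference inhibitor wells; 23 nL library stock went into each well; one replicate is shown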
Vaccinia stage Venus: second read-out of Vaccinia stage, no call of its own (marks repeat the call); activity change (Venus), %; measured here: Venus reporter, other viral stage;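 negative = less Venus signal; first of two replicates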
* marks the source's active call; other numbers are inactive results; ? = inconclusive; / = no result given; & = joins results of further samples.

canonical_smiles | Vaccinia stage | Vaccinia stage Venus
C[C@H](CO)N1C[C@H](C)[C@H](CN(C)C(=O)Nc2ccc3c(c2)OCO3)Oc2c(NC(=O)Nc3cccc4ccccc34)cccc2C1=O | -1 | 5
CCNC(=O)C[C@@H]1CC[C@H]2[C@@H](COc3ccc(NC(=O)Nc4cccc(F)c4)cc3C(=O)N2C)O1 | 4 | 5
CN(C)CC(=O)N1[C@@H](C#N)[C@@H](c2ccc(C#CC3CC3)cc2)[C@@H]1CO | 13 | 7
COCC#Cc1cnc2c(c1)C(=O)N([C@H](C)CO)C[C@H](C)[C@@H](CN(C)C(=O)Nc1ccccc1F)O2 | 24 | 11
C[C@@H]1CN([C@@H](C)CO)S(=O)(=O)c2ccc(C#Cc3cccc(F)c3)cc2O[C@H]1CN(C)C | -29 | -23
COc1ccc(C#Cc2cnc3c(c2)C(=O)N([C@H](C)CO)C[C@H](C)[C@H](CN(C)C)O3)cc1OC | -2 | -8
COc1ccc(S(=O)(=O)N(C)C[C@@H]2Oc3ccc(NC(=O)CCN4CCOCC4)cc3C(=O)N([C@@H](C)CO)C[C@H]2C)cc1 | 22 | 17
C[C@@H]1CN([C@H](C)CO)C(=O)c2cccc(NS(=O)(=O)c3ccccc3)c2O[C@@H]1CN(C)C(=O)Nc1ccccc1 | 19 | 19
C[C@H](CO)N1C[C@H](C)[C@@H](CN(C)C(=O)Nc2ccc(F)cc2)OCCCC[C@H](C)Oc2ccc(N(C)C)cc2C1=O | -3 | -4
CN1CCCCN2[C@@H](CO)[C@@H](c3ccc(C#CC4(O)CCCC4)cc3)[C@@H]2C1 | 11 | 5
CO[C@H](C(=O)N(C)C[C@@H]1OCc2ccccc2-c2ccccc2C(=O)N([C@@H](C)CO)C[C@@H]1C)c1ccccc1 | 21 | 9
C=CCOC(=O)[C@@H]1[C@H]2C(=O)O[C@H](c3ccccc3)[C@H](c3ccccc3)N2[C@H](c2ccc(OCCOC(=O)[C@@H]3C[C@@H]4C(=O)NCC(=O)N4[C@@H]3c3ccc(O)cc3)cc2)[C@@]12C(=O)Nc1ccc(I)cc12 | 12 | 6
COCCNC(=O)C[C@H]1C=C[C@@H](NC(=O)NC2CCCC2)[C@H](CO)O1 | 11 | 5
Cc1ccc(S(=O)(=O)Nc2cccc3c2O[C@H](CN(C)C(=O)Nc2ccccc2)[C@@H](C)CN([C@@H](C)CO)C3=O)cc1 | -5 | -6
CNC(=O)C[C@H]1CC[C@H]2[C@@H](COC[C@@H](O)CN2Cc2ccncc2)O1 | -6 | 0
C[C@@H]1CN([C@@H](C)CO)C(=O)CCCn2cc(nn2)CO[C@H]1CN(C)C(=O)NC1CCCCC1 | 13&0 | 5&-2
CC(C)NC(=O)N(C)C[C@@H]1Oc2c(NS(C)(=O)=O)cccc2C(=O)N([C@@H](C)CO)C[C@@H]1C | -6 | -5
C[C@@H]1CN([C@@H](C)CO)C(=O)c2cc(NC(=O)CCC(F)(F)F)ccc2O[C@H]1CN(C)C | 5 | 5
CC(C)NC(=O)N(C)C[C@H]1Oc2ccc(NS(=O)(=O)c3cccs3)cc2CC(=O)N([C@@H](C)CO)C[C@H]1C | 13 | 14
CN(C)C(=O)[C@H]1[C@H](CO)[C@H]2Cn3c(ccc(C4=CCCC4)c3=O)[C@H]2N1Cc1ccc2c(c1)OCO2 | -15 | -11
COc1ccc(NC(=O)N(C)C[C@@H]2OCc3ccccc3-c3ccccc3C(=O)N([C@@H](C)CO)C[C@@H]2C)cc1 | 29 | 14
Cc1ccccc1S(=O)(=O)N1[C@@H](C#N)[C@H](c2ccc(C#CC3CCCC3)cc2)[C@@H]1CO | -28 | -14
CCCNC(=O)C[C@H]1C[C@H]2c3cc(N(C)C)ccc3O[C@H]2[C@H](CO)O1 | 14 | 15
COc1ccc(S(=O)(=O)Nc2ccc3c(c2)C(=O)N([C@H](C)CO)C[C@H](C)[C@@H](CN(C)S(=O)(=O)c2ccc(F)cc2)OCCCC[C@H](C)O3)cc1 | ? | /
C/C=C/c1ccc([C@H]2[C@@H](CNC(C)C)N(Cc3cccnc3)[C@H]2CO)cc1 | -27 | -18
C[C@@H]1CN([C@H](C)CO)C(=O)c2cc(N(C)C)ccc2O[C@@H](C)CCCCO[C@@H]1CN(C)Cc1ccc2c(c1)OCO2 | -34 | -27
Cc1ccc(S(=O)(=O)N(C)C[C@H]2Oc3ccc(NC(=O)Nc4ccc(F)cc4)cc3CC(=O)N([C@@H](C)CO)C[C@@H]2C)cc1 | -10 | -3
CC(C)c1cn(CC[C@H]2CC[C@H](NC(=O)C3CCCC3)[C@H](CO)O2)nn1 | -12 | 2
CN1CCCCN2[C@H](CO)[C@@H](c3ccc(-c4ccc(F)cc4)cc3)[C@H]2C1 | -25 | -20
CC(C)NC(=O)N(C)C[C@H]1OCCCC[C@@H](C)Oc2ccc(NC(=O)CCC(F)(F)F)cc2C(=O)N([C@@H](C)CO)C[C@@H]1C | 8 | -7

Gathered by group: those above containing a CF3 group.
canonical_smiles | Vaccinia stage | Vaccinia stage Venus
C[C@@H]1CN([C@@H](C)CO)C(=O)c2cc(NC(=O)CCC(F)(F)F)ccc2O[C@H]1CN(C)C | 5 | 5
CC(C)NC(=O)N(C)C[C@H]1OCCCC[C@@H](C)Oc2ccc(NC(=O)CCC(F)(F)F)cc2C(=O)N([C@@H](C)CO)C[C@@H]1C | 8 | -7

Reformatted field by field: part of the list above
> Cc1ccccc1S(=O)(=O)N1[C@@H](C#N)[C@H](c2ccc(C#CC3CCCC3)cc2)[C@@H]1CO
- Vaccinia stage: -28
- Vaccinia stage Venus: -14

> CCCNC(=O)C[C@H]1C[C@H]2c3cc(N(C)C)ccc3O[C@H]2[C@H](CO)O1
- Vaccinia stage: 14
- Vaccinia stage Venus: 15

(more compounds)
canonical_smiles | Vaccinia stage | Vaccinia stage Venus
C[C@H](CO)N1C[C@H](C)[C@@H](CN(C)C(=O)c2cccnc2)Oc2ncc(C3=CCCC3)cc2C1=O | 21 | 23
C[C@H]1CN([C@@H](C)CO)C(=O)c2cc(NC(=O)NC3CCCCC3)ccc2O[C@H]1CN(C)C(=O)Nc1ccc2c(c1)OCO2 | 23 | 10
O=C(NCC[C@H]1CC[C@H](NS(=O)(=O)Cc2ccccc2)[C@@H](CO)O1)C1CC1 | -2 | 5
C[C@H]1CN([C@@H](C)CO)C(=O)Cc2cc(NC(=O)NC3CCCCC3)ccc2O[C@H]1CN(C)S(=O)(=O)c1cccs1 | 0 | 5
Cc1ccccc1S(=O)(=O)N1CCCCN2[C@@H](CO)[C@H](c3ccc(-c4cccnc4)cc3)[C@@H]2C1 | -7 | -1
O=C(Nc1cccc(F)c1)N1CC(=O)N2[C@H](C1)[C@@H](c1ccc(-c3ccccc3F)cc1)[C@@H]2CO | ? | /
C[C@H]1CN([C@@H](C)CO)C(=O)Cc2cc(NS(=O)(=O)c3ccc(Cl)cc3)ccc2O[C@H]1CN(C)S(=O)(=O)c1ccc(F)cc1 | 8 | -2
COc1ccc2c3c(n(C)c2c1)[C@H](CO)N(Cc1nccs1)CC31CN(C(C)=O)C1 | 21 | 22
CC=Cc1ccc2n(c1=O)C[C@@H]1[C@@H](CO)[C@H](C(=O)NCc3ccncn3)N(C(=O)NC3CCCC3)[C@H]21 (mixture of isomers) | 9 | -4
CC(=O)N1CC2(C1)[C@H](c1ccccc1)[C@@H](CO)N2Cc1ccccc1 | 2 | 10
COc1cccc(CNC(=O)C[C@@H]2CC[C@@H](NS(=O)(=O)c3ccccc3OC)[C@H](CO)O2)c1 | -8 | -7
C/C=C/c1ccc([C@@H]2[C@@H](CN(C)S(C)(=O)=O)N(C(=O)CC)[C@H]2CO)cc1 | -7 | -7
CN1C(=O)c2cc(NC(=O)c3ccc(F)c(F)c3)ccc2OC[C@H]2O[C@H](CC(=O)N3CCCCC3)CC[C@H]21 | -27 | -15
C/C=C/c1cnc2c(c1)C(=O)N([C@H](C)CO)C[C@@H](C)[C@@H](CN(C)C(=O)Cc1ccccn1)O2 | 5 | -3
O=C1CNC[C@@H]2[C@H](c3ccc(C4=CCCCC4)cc3)[C@H](CO)N12 | -8 | -3
O=S(=O)(c1ccccc1)N1CCCCN2[C@@H](CO)[C@@H](c3ccc(C#Cc4cccnc4)cc3)[C@@H]2C1 | -4 | -18
Cc1ccc(S(=O)(=O)Nc2cccc3c2O[C@@H](CN(C)Cc2ccc4c(c2)OCO4)[C@@H](C)CN([C@@H](C)CO)C3=O)cc1 | -23 | -13
C[C@H](O)C#Cc1ccc2c(c1)O[C@H](CN(C)CC1CCOCC1)[C@@H](C)CN([C@@H](C)CO)S2(=O)=O | 4 | 4
COCC(=O)N1C[C@H](C)[C@@H](OC)CN(C)C(=O)c2cc(NC(=O)Nc3cccc(F)c3)ccc2OC[C@H]1C | 5 | 3
CCC(=O)N1C[C@@H](C)[C@@H](OC)CN(C)C(=O)c2cc(NC(=O)COC)ccc2OC[C@@H]1C | 7 | -1
C[C@@H]1CN([C@H](C)CO)C(=O)c2cc(C#CCc3ccccc3)cnc2O[C@H]1CN(C)Cc1cccc(F)c1 | -27 | -25
CN1c2ccc(Br)cc2[C@H]2[C@H](CCN2C(=O)Nc2ccc(F)cc2)[C@H]1CO | 15 | 0
COc1ccc(S(=O)(=O)N(C)C[C@@H]2Oc3c(cccc3N(C)C)C(=O)N([C@H](C)CO)C[C@H]2C)cc1 | 14 | 5
Cc1noc(C)c1S(=O)(=O)Nc1ccc2c(c1)C(=O)N([C@H](C)CO)C[C@@H](C)[C@@H](CN(C)CC1CCCCC1)OCCCC[C@@H](C)O2 | ? | /
COc1ccc2c3c(n(C)c2c1)[C@@H](CO)N(C(=O)Nc1ccccc1F)CC31CCN(C)CC1 | -16 | -11
CCCNC(=O)[C@H]1[C@H](CO)[C@H]2Cn3c(ccc(-c4cccc(OC)c4)c3=O)[C@H]2N1C | 7 | 4
O=C(Nc1ccccc1)N[C@@H]1CC[C@@H](CCNS(=O)(=O)c2cccc(F)c2)O[C@H]1CO | -3 | 12
C[C@H](CO)N1C[C@H](C)[C@H](CN(C)S(C)(=O)=O)Oc2ncc(C#CC3CCCCC3)cc2C1=O | 4 | -5
C[C@@H]1CN([C@H](C)CO)C(=O)c2cc(NS(C)(=O)=O)ccc2O[C@@H](C)CCCCO[C@@H]1CN(C)C | 7 | 3
C/C=C/c1ccc2c(c1)O[C@H](CN(C)Cc1ccc(F)cc1)[C@H](C)CN([C@H](C)CO)S2(=O)=O | -21 | -16

(list continues)
canonical_smiles | Vaccinia stage | Vaccinia stage Venus
COc1ccc(S(=O)(=O)N(C)C[C@H]2OCc3ccccc3-c3c(n(C)c4ccccc34)C(=O)N([C@H](C)CO)C[C@H]2C)cc1 | ? | /
CO[C@H]1CN(C)C(=O)c2cc(NC(=O)C3CCCCC3)ccc2OC[C@@H](C)N(Cc2nccs2)C[C@@H]1C | -20 | -8
COc1ccc(NC(=O)N2CCCCN3[C@H](CO)[C@@H](c4ccc(-c5ccccc5C)cc4)[C@@H]3C2)cc1 | ? | /
COc1cccc(-c2ccc3n(c2=O)C[C@H]2[C@H](CO)[C@@H](C(=O)N(C)C)N(C(=O)C4CCC4)[C@@H]32)c1 | 25 | 16
C/C=C/c1ccc2c(c1)O[C@H](CN(C)C(=O)c1ccc(F)cc1)[C@H](C)CN([C@H](C)CO)S2(=O)=O | 4 | -15
C[C@@H]1CN([C@@H](C)CO)C(=O)c2cc(C#CC3CC3)cnc2O[C@@H]1CN(C)Cc1ccncc1 | 10 | 4
CNC(=O)C[C@H]1CC[C@@H]2[C@H](COc3ccc(NC(=O)c4cc(F)cc(F)c4)cc3C(=O)N2C)O1 | 1 | 11
O=C(C1CCCC1)N1[C@@H]2CN(S(=O)(=O)c3ccc(F)cc3)c3ccccc3[C@@H]2[C@@H]1CO | 4 | 2
C[C@H]1CN([C@@H](C)CO)C(=O)Cc2cc(NC(=O)c3ccncc3)ccc2O[C@@H]1CN(C)CC1CC1 | 8 | 4
O=S(=O)(N[C@@H]1CC[C@H](CCn2cc(C3(O)CCCC3)nn2)O[C@@H]1CO)c1ccccc1 | -1 | 2
CN1CCN(C(=O)C[C@@H]2C[C@@H]3c4cc(NC(=O)Nc5ccc(C(F)(F)F)cc5)ccc4O[C@@H]3[C@H](CO)O2)CC1 | 9 | 14
Cn1cnc(S(=O)(=O)N2C[C@@H](O)COC[C@H]3O[C@H](CC(=O)NCc4cc(F)cc(F)c4)CC[C@@H]32)c1 | 11 | 9
C[C@H](CO)N1C[C@H](C)[C@@H](CN(C)S(=O)(=O)c2cccs2)Oc2ccc(NC(=O)Nc3ccc(F)cc3)cc2CC1=O | 2 | 4
CCC(=O)N1[C@H](CO)[C@@H](c2ccccc2)[C@H]1CNC(=O)CN1CCOCC1 | 2 | 4
C[C@H]1CN([C@@H](C)CO)C(=O)Cc2cc(NC(=O)C3CCCCC3)ccc2O[C@@H]1CN(C)Cc1ccc(C(=O)O)cc1 | 12 | 3
C[C@H]1CN([C@@H](C)CO)C(=O)c2cc(NC(=O)Nc3ccccc3)ccc2O[C@@H]1CN(C)S(=O)(=O)c1ccc(Cl)cc1 | -5 | 0
COc1ccc(S(=O)(=O)Nc2ccc3c(c2)C(=O)N([C@@H](C)CO)C[C@@H](C)[C@H](CN(C)S(=O)(=O)c2cn(C)cn2)OCCCC[C@@H](C)O3)cc1 | 35 | 13
C[C@H](O)C#Cc1ccc2c(c1)O[C@@H](CN(C)Cc1ccccn1)[C@@H](C)CN([C@@H](C)CO)S2(=O)=O | 9 | 0
COC(=O)[C@@H]1[C@@H](CO)[C@@H]2Cn3c(ccc(C4=CCCCC4)c3=O)[C@@H]2N1C(=O)c1ccccc1F | 2 | 5
C[C@H]1CN([C@@H](C)CO)C(=O)c2cccc(NS(=O)(=O)c3cccs3)c2O[C@H]1CN(C)C(=O)Nc1ccc(C(F)(F)F)cc1 | 3 | -1

Reformatted: results already given
C/C=C/c1ccc2c(c1)O[C@H](CN(C)C(=O)c1ccc(F)cc1)[C@H](C)CN([C@H](C)CO)S2(=O)=O
  Vaccinia stage = 4
  Vaccinia stage Venus = -15
C[C@@H]1CN([C@@H](C)CO)C(=O)c2cc(C#CC3CC3)cnc2O[C@@H]1CN(C)Cc1ccncc1
  Vaccinia stage = 10
  Vaccinia stage Venus = 4

Some of the compounds tested (hit frequency here may not be typical).
